# Screens (PubChem BioAssay)
# HIV TAR-Tat: HIV-1 TAR-Tat binding disruption. HIV-1 TAR RNA, Tat peptide displacement FRET; hits give high values. z-score (test concentration not listed). 100,000 tested, 0.6% active;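 note: score is relative to mean and SD of negative controls; some compounds called inactive have numbers as strong as hits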
# CDC25B CDK2 inh: human CDC25B-CDK2/CyclinA binding inhibition; P30305+P24941; HTRF CDC25B-CDK2/CyclinA binding, anti-His/anti-Flag; hits give high values; 94,000 tested, 0.72% active; z-score (concentration not given with the values); AID 1259370;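 note: score is relative to mean and SD of negative controls; strong numbers were not always called active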
# Active calls of the source: *; · = no result given.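 Rule for the calls: active = z-score from 3 up in half or more of its runs; inactive = the rest.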
SMILES	HIV TAR-Tat	CDC25B CDK2 inh
Cc1ccc(-c2noc3ncnc(NCCN4CCCCC4C)c23)cc1 (centres undefined)	-0.55	·
CCOC(=O)c1ccc(NC(=O)CSCc2ccco2)cc1	·	-2
O=[N+]([O-])c1ccc2ncccc2c1-n1cccc1	·	-2.3
COCCCNC(=O)c1ccc(N=Cc2ccccc2O)cc1	·	-0.26
O=C(C1COc2cc(S(=O)(=O)N3CCC(N4CCCCC4)CC3)ccc2O1)N1CCOCC1 (centres undefined)	0.55	·
Fc1ccc(-c2nn[nH]n2)cc1	·	-1.2
CC(/C=N/O)=N\Nc1ccccc1	·	-1.8
O=C(COc1ccccc1)Nc1ccc(C(=O)O)cc1	·	-1.7
CCc1ccc(C2C3=C(CCCC3=O)NC3=C2C(=O)c2ccccc23)cc1 (centres undefined)	-2.7	-0.93
COCCNC(=O)c1c(NC(=O)c2nn(-c3ccc(Cl)cc3)ccc2=O)sc2c1CCCC2	-0.13	-1.1
COc1ccc(C2CC(=O)C3=C(C2)NC(C)=C(C(=O)OC2CCCCC2)C3c2ccncc2)cc1 (centres undefined)	-1.1	-0.6
O=C(CSc1nc2ccccc2o1)N1CCc2c([nH]c3ccccc23)C1C(F)(F)F (centres undefined)	·	-0.46
O=C(Nc1ccccc1)c1nn(-c2ccc(Cl)cc2)ccc1=O	-0.71	-0.05
O=C(OCc1ccco1)c1ccc2c(c1)N(CCN1CCOCC1)C(=O)c1ccccc1S2	0.49	·
CCOc1ccc(N2C(=O)c3cccnc3C2Nc2ccc(Br)cc2F)cc1 (centres undefined)	1.6	-1.8

# The list continues.
SMILES	HIV TAR-Tat	CDC25B CDK2 inh
CC(C)NC(=O)c1cnn2c1NC(c1cccs1)CC2C(F)(F)F (centres undefined)	2.2	-0.61
O=C1CC(=O)Nc2cc(S(=O)(=O)NCc3cccnc3)ccc2N1	0.7	-0.71
C=CCOc1ccc(/C(O)=C2\C(=O)C(=O)N(CCN3CCOCC3)C2c2ccc(F)cc2)cc1C (centres undefined)	-0.7	-1
O=C(O)CN1C(c2ccccc2O)Nc2ccc(Br)cc2C1c1ccccc1 (centres undefined)	0.41	-1.4
COc1ccc(NC(=O)NC2(C(F)(F)F)Oc3ccc(Cl)cc3O2)c(OC)c1 (centres undefined)	·	-1.4
Nc1nc(CSCCO)nc(Nc2ccccc2)n1	-0.94	-1.1
CCCN1CC(O)=C(c2nc3ccccc3[nH]2)C1=N	0.82	-4.2
COc1cccc(Cn2cc(C(=O)c3ccccc3)c(=O)c3cc4c(cc32)OCO4)c1	-0.19	0.06
Cc1ccc(-c2cc(C(=O)N(Cc3ccco3)C3CCS(=O)(=O)C3)no2)cc1 (centres undefined)	2.4	-0.73
CC1CCN(CCNc2ncnc3onc(-c4ccc(Cl)cc4)c23)CC1	1.4	·
O=c1c2c(c1=O)NCCCN2	·	-1.5
COc1ccc(OC)c(NC(=O)N2CCn3cccc3C2C(C)C)c1 (centres undefined)	-0.86	·
Cc1nn(-c2ccc(Cl)cc2)c2nc(-c3ccncc3)cc(C(F)(F)F)c12	0.56	-1.1
CCOC(=O)c1c(NC(=O)COCc2cc(-c3cccs3)on2)sc2c1CCCC2	-1.1	·
CCCC(=O)N1CCN(c2oc(/C=C/c3ccc(C)cc3)nc2C#N)CC1	1.1	-2

# 5 compounds picked at random from the list so far:
SMILES	HIV TAR-Tat	CDC25B CDK2 inh
CCCC(=O)N1CCN(c2oc(/C=C/c3ccc(C)cc3)nc2C#N)CC1	1.1	-2
CCCN1CC(O)=C(c2nc3ccccc3[nH]2)C1=N	0.82	-4.2
O=c1c2c(c1=O)NCCCN2	·	-1.5
CC(/C=N/O)=N\Nc1ccccc1	·	-1.8
O=C(Nc1ccccc1)c1nn(-c2ccc(Cl)cc2)ccc1=O	-0.71	-0.05

# Later entries.
SMILES	HIV TAR-Tat	CDC25B CDK2 inh
Cc1cccc(-n2nnc(-c3nc(-c4ccccc4F)no3)c2N)c1	0.2	·
O=C(c1ccc(F)cc1)c1cn(Cc2ccccc2F)c2ccccc2c1=O	0.09	0.5
CCN(CC)CCN(C(=O)c1ccco1)c1nc2c(C)cc(C)cc2s1	0.62	·
COc1ccc(-c2nnc3sc(SCC(=O)NC4CCCCC4)nn3c2=O)cc1	-0.07	·
Cc1ccc2nc(C3=C(O)CN(c4ccc(F)c(Cl)c4)C3=N)[nH]c2c1	2.2	-0.89
CCCCc1c(C)nn(-c2nc(C)c(C(=O)N3CCCC3)s2)c1C	0.19	0.16
COc1cccc(C2C3=C(CC(C)(C)CC3=O)Nc3nc(SCc4ccccc4F)nn32)c1OC (centres undefined)	-0.5	-2.2
O=C(c1cc(-c2ccc3c(c2)OCCO3)on1)N(Cc1ccc(F)cc1)C1CCS(=O)(=O)C1 (centres undefined)	0.52	-0.86
CC(C)(C)c1ccc(OCC(O)Cn2c(CO)nc3ccccc32)cc1 (centres undefined)	0.46	-1.9
CC(C)CCn1c(=O)c2ccc(C(=O)NC3CCCC3)cc2n2c(=O)[nH]nc12	1.8	-1.3
COCCNc1nc2c(S(=O)(=O)c3cc(C)ccc3C)nnn2c2ccccc12	-0.84	-1.5
O=C(Nc1nc2ccc(Cl)cc2s1)c1cc(-c2ccc3c(c2)OCCO3)on1	0.2	-2.4
CCOC(=O)CSc1nc2ccc(N)cc2s1	0.5	-6
O=C(CSc1nc(-c2cccc(Cl)c2)nc2cc(=O)[nH]n12)Nc1ccccc1F	17	·
O=C1CC(c2cccc(Cl)c2)Cc2nc(N3CCN(Cc4ccccc4)CC3)ncc21 (centres undefined)	0.24	-0.11

# Following part.
SMILES	HIV TAR-Tat	CDC25B CDK2 inh
CCCC(=O)NCc1csc(C)n1	-0.18	-0.61
NC(=O)Cn1c(=O)c(CNc2ccccc2)cc2cc3c(cc21)OCCO3	-2.6	·
CC1C(=O)N2CCCc3cc(S(=O)(=O)N4CCc5ccccc54)cc1c32 (centres undefined)	2.4	·
O=C(NCCCN1CCN(C2CCCCC2)CC1)C1CCCN(S(=O)(=O)N2CCOCC2)C1 (centres undefined)	5	·
CCc1nnc(NC(=O)Nc2ccc3c(c2)N(C)C(=O)CS3)s1	0.3	-2.8
COc1cc(CNCCSc2nnnn2C)cc(Cl)c1OC	-0.51	-1.3
Cc1ccccc1OCC(O)CN1C(=O)NC(C)(C)C1=O (centres undefined)	0	-1.2
COc1ccc(OC)c2[nH]c(=O)c(CCNC(=O)C3c4ccccc4Oc4ccccc43)cc12	·	0.02
CCCc1ccc(Oc2c(C)oc3cc(OCC)ccc3c2=O)cc1	·	-1.4
CCCCCOC(=O)C1=C(C)Nc2nc3ccccc3n2C1c1cccs1 (centres undefined)	0.49	-0.51
Cc1ccc(Cl)cc1NS(=O)(=O)c1ccc(-n2cccn2)cc1	0.27	·
COc1ccc(OC)c(S(=O)(=O)NCc2nc3nc(C)cc(C)n3n2)c1	1.4	-0.55
Cc1ccc(NS(=O)(=O)c2cc(Br)cnc2N)cc1C	0.76	-0.87
Cc1ccc(-c2ccc(=O)n(Cc3cccc(Br)c3)n2)cc1S(=O)(=O)N1CCCC1	0.18	0.07
Cc1cc(C)cc(N(CC(=O)NC2CCCC2)S(=O)(=O)c2c(C)[nH]c(=O)[nH]c2=O)c1	0.29	0.16

# Further structures follow.
SMILES	HIV TAR-Tat	CDC25B CDK2 inh
COc1ccc(-c2noc(Nc3ccc(Cl)cc3)n2)cc1	2.4	-1.1
CCC(Sc1nnnn1-c1ccccc1)C(=O)Nc1nnc(C(C)C)s1 (centres undefined)	0.13	-2.1
S=C1NCN(C2CCCCCC2)CN1	·	0.13
CCCc1[nH]nc2c1C(c1ccc(OCC)cc1)C(C#N)=C(N)O2 (centres undefined)	0.14	-0.69
Cn1cnc(S(=O)(=O)N2CCCC(C(=O)Nc3cccc4c3CCCC4)C2)c1 (centres undefined)	0.35	·
CSc1ccc(CCNc2ncnc3c2nc2n3CCCC2)cc1	0.23	·
COc1ccc(C2CC(=O)C3=C(C2)Nc2ncnn2C3c2ccccc2)cc1 (centres undefined)	-0.16	-0.4
O=C(O)c1ccc(-n2nnc3cccnc32)cc1	-4.3	-0.34
COc1ccc(-c2cc(OC(=O)c3ccccc3C)c3c(C)oc(C)c3c(=O)c2)cc1OC	-5.8	0.37
O=C(COCc1cc(-c2ccco2)on1)NC1CCCC1	-1.2	·
O=C(O)C1CSC(c2ccc(OCc3ccc(Cl)cc3)cc2)N1 (centres undefined)	·	2.5
CC1(C)CS(=O)(=O)N(c2ccc(C(=O)N3CCCC3)cc2)C1=O	1.1	-1.9
CCc1ccccc1N1C(=O)C2C3c4ccccc4C(CO)(c4ccccc43)C2C1=O (centres undefined)	-1.7	-1.8
Cc1cc(C(F)F)n2nc(C(=O)Nc3cnn(Cc4ccc(F)cc4)c3)nc2n1	1.2	-2.1
O=C(NCCc1ccccc1)NC(c1ccccc1)c1nnc(-c2ccccc2)o1 (centres undefined)	1.5	·

# Following part
smiles | HIV TAR-Tat | CDC25B CDK2 inh
CCCOC(=O)C1=C(C)NC2=C(C(=O)CC(C)(C)C2)C1c1ccc(N(CC)CC)cc1 (centres undefined) | -1.3 | -1.4
Cc1oc2ccc(NS(=O)(=O)c3ccccc3)cc2c1C(=O)O | 18* | -0.14
CC(=O)C(Sc1ccc2nnc(-c3ccc(F)cc3)n2n1)C(=O)N(C)C (centres undefined) | · | -1.6
C=CCOc1ccc(C2c3c(oc4ccccc4c3=O)C(=O)N2c2ccccn2)cc1 (centres undefined) | 0.08 | -0.56
CCCOc1ccc(COC2C(C3COC(C)(C)O3)OC3OC(C)(C)OC32)cc1 (centres undefined) | · | -0.21
CC1(C)Cc2cccc(C(=O)NCc3ccco3)c2O1 | · | -0.71
O=C(N/N=C/C=C/c1ccccc1)N/N=C/C=C/c1ccccc1 | · | -1.5
CCOC(=O)C1=NNC2C(=O)N(c3ccccc3)C(=O)C12 (centres undefined) | 1.3 | -1.4
CC(C)OCCCNc1ncnc2c1cnn2C | 2.4 | ·
N#Cc1nc(-c2ccc(COc3ccc(Cl)cc3)o2)oc1NCc1cccnc1 | -1.5 | -0.18
Fc1ccc(CNc2cc(-c3ccccc3)nc3nncn23)cc1 | -0.99 | 0.81
CC12NC(=O)NC1(C)NC(=O)N2 (centres undefined) | · | -0.7
Fc1ccccc1-n1nnnc1SCc1cc2c(cc1Cl)OCO2 | 2.4 | -1.5
OC(Cn1ccc2ccccc21)Cn1cnc2ccccc21 (centres undefined) | -0.56 | -1.7
CN(NC(=O)NC(=O)c1ccc(F)c(Cl)c1)c1ccc([N+](=O)[O-])cn1 | · | -1.4
O=S(=O)(c1ccc(Cl)cc1)N1CCC(n2cccc2)CC1 | · | -1.2
Cc1cc(CC(=N)N)c(C)cc1CC(=N)N | · | 0.97
O=c1c2c3c(sc2n(Cc2cc(=O)n4ccccc4n2)c(=O)n1-c1ccccc1)CCCC3 | · | -0.82
O=C(Nc1sc2c(c1C(=O)NCCc1ccccc1)CCC2)c1cc(=O)c2cc(Cl)ccc2o1 | 1 | -1.4
O=c1cc(-c2ccccc2)oc2cc(O)cc(O)c12 | 1.1 | ·

# Five compounds from above, arranged by formula weight, ascending.
smiles | HIV TAR-Tat | CDC25B CDK2 inh
CC1(C)Cc2cccc(C(=O)NCc3ccco3)c2O1 | · | -0.71
CCOC(=O)C1=NNC2C(=O)N(c3ccccc3)C(=O)C12 (centres undefined) | 1.3 | -1.4
Fc1ccccc1-n1nnnc1SCc1cc2c(cc1Cl)OCO2 | 2.4 | -1.5
CN(NC(=O)NC(=O)c1ccc(F)c(Cl)c1)c1ccc([N+](=O)[O-])cn1 | · | -1.4
N#Cc1nc(-c2ccc(COc3ccc(Cl)cc3)o2)oc1NCc1cccnc1 | -1.5 | -0.18

# Following part.
smiles | HIV TAR-Tat | CDC25B CDK2 inh
CCCNC(=O)c1nn2c(c1Br)NC(c1cccs1)CC2C(F)(F)F (centres undefined) | 1.1 | -2.9
CCOC(=O)c1c(C)[nH]c(C)c1S(=O)(=O)NCCCN1CCC(C)CC1 | 1.4 | ·
O=C(CSc1nnc(-c2ccc(Cl)cc2)o1)N1CCCC1 | 2.1 | -0.22
O=C(O)c1c(-c2ccc(F)cc2)noc1N1CCCCC1 | -1.1 | -1.1
CS(=O)(=O)Nc1ccc2oc3ccccc3c(=O)c2c1 | · | 0.05
COc1ccc(/C=C(\C#N)C(=O)c2cc(C(C)(C)C)on2)cc1 | · | -1.7
O=C(NCCCN1CCN(C2CCCCC2)CC1)C1CCN(c2nc3cccnc3s2)CC1 | -0.1 | ·
Cc1ccc(-c2cc(=O)c(=O)[nH][nH]2)cc1 | 0.98 | -0.32
Cc1ccc(CN(C(=O)c2sc3ccccc3c2Cl)C2CCS(=O)(=O)C2)o1 (centres undefined) | 1.4 | 1.2
CCOc1cc(C2/C(=C(\O)c3ccc(F)cc3)C(=O)C(=O)N2c2nncs2)ccc1O (centres undefined) | -0.39 | -1.1
CC(C)CN(CCNC(=O)c1cc(-c2ccncc2)nc2ccccc12)CC(C)C | · | 0.04
CN(C(=O)CCCc1nc(-c2cccs2)no1)c1ccccc1 | 1.7 | -0.04
CCc1ccc(-c2cc3c(=O)n(CC(=O)NCC4CCCO4)nc(C)n3n2)cc1 (centres undefined) | 1.2 | ·
CC(=O)N1CCc2cc(S(=O)(=O)CCC(=O)Nc3ccc(F)cc3)ccc21 | 1.1 | ·
N#Cc1cc2c(=O)n3ccccc3nc2n(-c2ccccc2F)c1=O | -2.4 | 1.8
CC1Cc2ccccc2N1S(=O)(=O)c1ccc(N2CCCCS2(=O)=O)cc1 (centres undefined) | 0.85 | ·
Cn1c(=O)c(=O)n(C)c2cc(N3CCCCC3)c(NS(=O)(=O)c3cccs3)cc21 | 0.19 | ·
CC1(C)CC(NC(=O)COc2ccc(C(C)(C)C)cc2)CC(C)(C)N1 | · | 1.9

# Filtered by structure: those above with a tert-butyl group.
smiles | HIV TAR-Tat | CDC25B CDK2 inh
CC(C)(C)c1ccc(OCC(O)Cn2c(CO)nc3ccccc32)cc1 (centres undefined) | 0.46 | -1.9
COc1ccc(/C=C(\C#N)C(=O)c2cc(C(C)(C)C)on2)cc1 | · | -1.7
CC1(C)CC(NC(=O)COc2ccc(C(C)(C)C)cc2)CC(C)(C)N1 | · | 1.9
